# Env fusion inh – inhibitors of HIV-1 Env-driven cell-cell fusion, primary screen, HeLa-JRFL effector, CEM21 target cells, luciferase | AID 651610, 2012 | hit rate 1.1% among 360,000 | inhibition, % at 12.3 µM;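 active = mean replicate inhibition score of at least 50 and every replicate individually at or above 50; inconclusive = only one of the two criteria met; inactive = mean below 50 and not all replicates reaching 50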;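 also: 0% = plate neutral controls and 100% = maraviroc near 300 nM; one replicate is shown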
# Rce1 inhib – yeast Rce1p protease inhibitors, primary screen, biochemical, fluorescence, cell-free homogeneous; CAAX prenyl protease 2 (Saccharomyces cerevisiae (strain ATCC 204508 / S288c)), Q03530; yeast membranes, quenched prenylated peptide cleavage fluorescence; calls only; hit rate 0.27% among 290,000; AID 2563, 2010;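 active = fall in fluorescence gain of 50% or more versus controls, with final raw signal at or below 3038400; inconclusive = same 50% fall but final raw signal above 3038400; inactive = fall in fluorescence gain under 50%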;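 also: plate controls were neutral control wells for no effect and wells lacking membranes for full effect; tested at 10 µM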
# PABP polyA inh – PABP poly(A) RNA binding inhibitors, primary screen, biochemical, fluorescence polarization, uHTS. hit rate 1% among 290,000. inhibition, % at 35 µM. Polyadenylate-binding protein 1 (Homo sapiens), P11940;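 active = 50% or more with normal probe brightness, or confirmed in later tests; inconclusive = above 50% with abnormal brightness, or retests that disagree; inactive = below 50% or failed in later tests; about a fifth of its hits are not listed in these tables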;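 also: calls also rest on retests at 20 µM and on dose response follow-up; controls were probe without protein and protein plus probe with vehicle; some compounds called inactive have numbers as strong as hits; many hits fall short of the cut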
# Target sequence (P11940 whole entry, looked up): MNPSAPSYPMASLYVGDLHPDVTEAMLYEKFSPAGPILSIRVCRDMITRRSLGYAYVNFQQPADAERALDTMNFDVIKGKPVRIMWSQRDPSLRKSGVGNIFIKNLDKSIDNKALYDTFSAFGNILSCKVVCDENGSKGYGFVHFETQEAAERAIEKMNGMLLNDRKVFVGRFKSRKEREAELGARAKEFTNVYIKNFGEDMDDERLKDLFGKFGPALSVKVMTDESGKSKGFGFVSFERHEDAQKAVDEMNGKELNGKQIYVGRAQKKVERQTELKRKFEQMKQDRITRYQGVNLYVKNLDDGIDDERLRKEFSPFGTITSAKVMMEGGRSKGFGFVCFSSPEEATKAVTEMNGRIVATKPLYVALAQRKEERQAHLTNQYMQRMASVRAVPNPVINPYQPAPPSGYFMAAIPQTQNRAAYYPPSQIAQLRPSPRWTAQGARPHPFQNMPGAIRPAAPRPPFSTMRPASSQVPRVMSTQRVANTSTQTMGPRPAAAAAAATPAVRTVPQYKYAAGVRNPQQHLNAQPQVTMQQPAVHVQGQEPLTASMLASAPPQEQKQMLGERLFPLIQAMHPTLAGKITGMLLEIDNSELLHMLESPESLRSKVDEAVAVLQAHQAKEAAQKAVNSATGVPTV
# CSC inhib – cancer stem cell viability inhibitors, primary screen, luminescence. hit rate 1.1% among 300,000. cancer stem cell-like cells viability. inhibition, % at 7.5 µM. AID 2717, 2010;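 active = mean at 75% or more and at least half the replicates too; inconclusive = mean and replicates disagree; tested in HMLE shEcad cells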;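 also: 0% = median of negative and 100% = median of positive control wells; the first replicate is given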
# eIF4H inh – human eIF4H binding inhibitors, primary screen, translation initiation inhibitor project, biochemical, uHTS, fluorescence polarization; hit rate 0.94% among 290,000; AID 2012, 2009; inhibition, % at 35 µM; Eukaryotic translation initiation factor 4H (Homo sapiens), Q15056; eIF4H fluorescence polarization binding assay;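 active = 50% or more with normal probe brightness, or confirmed in later tests; inconclusive = above 50% with abnormal brightness, or retests that disagree; inactive = below 50% or failed in later tests; about a fifth of its hits are not listed in these tables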;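 also: calls also rest on retests at 20 µM and on dose response follow-up; 0% = protein and probe with vehicle and 100% = probe without protein; strong numbers were not always called active; many hits fall short of the cut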
# Yeast UUG start – modulators of yeast start codon fidelity, primary screen, whole organism, S. cerevisiae, single point, plate reader; activity score, % at 18.7 µM; S. cerevisiae UUG-firefly luciferase reporter, luminescence/redox ratio; hit rate 0.13% among 350,000;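 active = replicate mean at a twofold rise or more, about +100% in these data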;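 also: firefly luciferase made from a UUG start codon reports start codon fidelity; reporter light over untreated wells divided by growth signal over untreated wells; some hits fall short of that in this replicate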
# MT1-MMP act inh – blockers of MT1-MMP proenzyme processing, primary screen, HT1080 RFP-PRO-GFP cells, GFP/RFP fluorescence | Matrix metalloproteinase-14 (Homo sapiens), P50281 | GFP/RFP ratio fluorescence, overnight; percent of plate control window, DMSO zero | GFP/RFP ratio change, % at 20 µM | hit rate 0.061% among 360,000 | AID 651647, 2012;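 active = GFP/RFP ratio change of at least 30% with cell ATP level not reduced by more than half and red fluorescence within 50% of control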; also: strong numbers were not always called active
#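 Assay system: HT1080 RFP-PRO-GFP cells. Benchmarks: DMSO vehicle wells and RFP-L50D-GFP reporter cell wells. Times: overnight cell settling, then overnight compound exposure, 37 °C, 5% CO2. Compound: 20 µM single dose, 1% DMSO. Read-out basis: GFP/RFP fluorescence ratio.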
# eIF4H inh retest – second read-out of eIF4H inh, no call of its own (marks repeat the call); inhibition, %; compound at 20 µM; confirmation average;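 mean of two retest wells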
# PABP polyA inh retest – further read-out of PABP polyA inh, marked with its call; inhibition, %; compound at 20 µM; confirmation repeats;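 mean of two retest wells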
# MT1-MMP act inh RFP – further read-out of MT1-MMP act inh, marked with its call; RFP signal change, %; measured here: RFP expression control read;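 0 = vehicle wells; hits needed this value within 50% of zero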
# * hit, by the source's call; i = inactive; ? = inconclusive; · = not tested or not shown; + = active, no number.
SMILES,Env fusion inh,Rce1 inhib,PABP polyA inh,CSC inhib,eIF4H inh,Yeast UUG start,MT1-MMP act inh,MT1-MMP act inh RFP,others
Cc1nc2sccn2c(=O)c1S(=O)(=O)N1CCN(c2ccccc2)CC1,-1.0,i,-9.6,-5.8,2.0,-3.5,9.1,5.3,
Cn1c(C(=O)NCCCN2CCCCCC2)cc2c(=O)n(C)c3ccccc3c21,-387.1,·,-1.4,-15.0,24.6,35.6,·,·,
O=C(CNC(=O)c1ccco1)NCc1nc2ccccc2[nH]1,·,i,0.5,-5.4,0.6,-4.8,1.6,6.3,
CCOc1cc(C2c3c(n[nH]c3C)C(=O)N2c2ccc(Br)cc2)ccc1O (stereo not drawn),·,i,7.4,-10.2,8.4,-3.8,3.5,10.3,
CN1CCc2c(sc3c2C(=O)NC(c2cccs2)N3)C1 (stereo not drawn),·,i,-0.9,-10.5,?,-18.3,-73.6,11.2,
COCC(=O)N(C)[C@H]1C[C@H]2c3cc(-c4ccccc4)ccc3CCN2C(=O)[C@H]1[C@H](C)O,-26.7,·,·,·,·,16.1,2.7,2.9,
Cn1ncc(C#N)c1/N=C/N1CCCCC1,-2.8,i,0.9,3.0,-14.5,-10.8,-4.6,0.8,
O=C1OC[C@@H]2CCCN2C(=O)[C@H](CC(=O)N(CCO)Cc2ccccc2)C/C=C\C[C@H]1Cc1ccc(F)cc1,-22.5,·,·,4.0,·,5.6,2.8,0.7,
CC(OC(=O)c1ccc2c(=O)n3c(nc2c1)CCCCC3)C(=O)Nc1ccc(Cl)cn1 (stereo not drawn),9.4,i,33.0,-7.1,1.5,3.3,-0.2,1.3,
CCOCCOC(=O)c1ccc(-n2cncn2)nc1,-31.7,i,-7.8,-2.9,-16.0,0.8,0.2,-3.2,
COC(=O)c1cccc(NC(=O)CSc2nncn2-c2ccccn2)c1,5.6,i,6.3,6.7,-6.0,-8.2,1.1,2.4,
Cc1ccc(-c2cc(C(=O)N/N=C/C(Br)=C/c3ccccc3)n[nH]2)o1,-1.2,i,-1.8,-5.5,-1.2,·,4.5,-4.7,
N/C(=N\OC(=O)Cc1ccccc1)c1ccc(Br)cc1,-6.2,i,3.5,0.2,-11.3,·,0.9,1.3,
CCCC(C)NC(=O)Cc1ccccc1[N+](=O)[O-] (stereo not drawn),2.0,i,-1.3,-4.0,-1.1,·,2.5,7.3,
O=C(CCCn1c(=S)[nH]c2ccccc2c1=O)NCc1ccco1,-6.1,i,3.5,-10.6,-1.1,-14.8,1.3,4.7,
C/C(=N\Nc1ccccn1)c1ccc(C(C)C)cc1,-10.9,i,-0.5,·,2.0,-21.1,1.2,1.4,
N#C/C(=C\c1ccc([N+](=O)[O-])o1)c1nc2ccccc2[nH]1,-141.2,·,1.6,?,?,·,·,·,
O=C(Nc1cc(S(=O)(=O)N2CCOCC2)ccc1Cl)c1cc(=O)c2ccccc2o1,2.2,i,-11.4,-9.0,-1.1,·,3.5,3.2,
COc1ccc(NC2=NC(=S)N(c3cccc(C)c3)C23CCCCC3)cc1,-47.9,i,-5.4,-9.1,5.6,-9.0,8.2,7.5,
CC(C)C(=O)Nc1nnc(NC(=S)Nc2ccccc2)s1,-7.6,i,-4.7,-5.4,-12.3,-32.9,3.3,-0.6,
O=C(Cn1ncc2c3ccccc3n(Cc3ccc(Cl)cc3)c2c1=O)NCCCN1CCCC1=O,-0.6,i,-4.2,-9.6,-1.6,-26.7,-2.7,-3.2,
COc1ccc(OC)c(NC(=O)C2CCCN(S(=O)(=O)c3c(C)nn(C)c3C)C2)c1 (stereo not drawn),12.6,i,·,-5.0,·,-10.4,-3.5,5.6,
CC(C)NC(=O)c1ccccc1NC(=O)C1CC(=O)N(C(C)C)C1 (stereo not drawn),-4.1,i,3.5,-2.9,-3.8,-0.3,-0.8,2.2,
CCOC(=O)C1(C)CCCN1C(=O)c1ccccc1F (stereo not drawn),-7.1,·,·,·,·,-11.6,2.2,2.6,
CCOC(=O)c1cnc2cc(F)c(F)cc2c1N1CCN(C)CC1,-1.4,i,-9.3,-13.2,-2.3,-11.2,-8.7,1.6,

# Overlap with the part before: three entries, followed by the next part.
SMILES,Env fusion inh,Rce1 inhib,PABP polyA inh,CSC inhib,eIF4H inh,Yeast UUG start,MT1-MMP act inh,MT1-MMP act inh RFP,others
CC(C)NC(=O)c1ccccc1NC(=O)C1CC(=O)N(C(C)C)C1 (stereo not drawn),-4.1,i,3.5,-2.9,-3.8,-0.3,-0.8,2.2,
CCOC(=O)C1(C)CCCN1C(=O)c1ccccc1F (stereo not drawn),-7.1,·,·,·,·,-11.6,2.2,2.6,
CCOC(=O)c1cnc2cc(F)c(F)cc2c1N1CCN(C)CC1,-1.4,i,-9.3,-13.2,-2.3,-11.2,-8.7,1.6,
CCN(CC(=O)NCCCn1ccnc1)S(=O)(=O)c1ccc(C)cc1,-13.0,i,4.8,-16.9,-5.6,-23.0,0.6,6.6,
O=C(CCNS(=O)(=O)c1ccc(Cl)cc1)N1CCC2(O)CCCCC2C1 (stereo not drawn),·,i,4.4,-7.5,2.1,-0.5,1.1,4.6,
Cc1cccc(NC(=S)NC(=O)c2ccc(Br)o2)c1C,-14.9,i,-12.5,-0.7,-0.4,·,-1.2,-1.0,
CCOC(=O)c1cnc(SCC#N)nc1N,11.2,i,14.7,18.3,0.5,-13.0,3.1,3.7,
Cc1ccc(N=CC2=C(O)CC(c3ccco3)CC2=O)cc1 (stereo not drawn),13.0,i,11.9,-3.7,0.9,-9.8,-6.5,-0.2,
CCCCn1c(=O)c(CCC(=O)O)nc2ccccc21,30.2,i,5.8,-8.9,7.3,·,1.4,4.0,
C[C@@H]1CC[C@]2(C(=O)O)CC[C@]3(C)C(=CCC4[C@@]5(C)CC[C@H](O)[C@@](C)(C(=O)O)C5CC[C@]43C)C2[C@]1(C)O (stereo partly drawn),-10.8,·,·,-14.0,·,-10.3,0.2,-1.6,
Nc1c(Cl)ncnc1N/N=C/c1ccc2ccccc2n1,-48.9,·,-5.7,101.6*,?,·,-4.1,3.8,
CC(=O)NC(=O)c1nnn(Cc2ccccc2)c1NC(C)=O,-109.8,·,8.4,-2.4,-3.7,-14.6,-1.6,0.4,
COc1ccc(/C=C2\SC(=S)N(CCC(=O)N(CCO)c3ccccc3)C2=O)cc1OC,18.3,i,6.7,2.3,-4.8,0.7,-4.8,-3.8,
CCCn1nc(C(=O)NNC(=O)CCOc2ccccc2OCC)c2ccccc2c1=O,6.0,i,·,-11.8,·,·,0.2,-0.2,
COc1ccc(CN(C(=O)c2ccc(-c3ccccc3)[nH]2)C(C(=O)NC(C)(C)C)c2ccncc2)cc1 (stereo not drawn),-11.2,i,1.6,23.7,4.1,-10.2,-47.7,-39.2,
O=C(c1ccccc1)N(C(=O)c1ccccc1)c1ccccc1,-10.8,·,·,·,·,-17.0,-5.2,-1.3,
CCOc1cc(CNc2ccc(O)cc2)cc(Br)c1OCc1ccccc1F,·,i,-5.9,38.1,6.5,-51.9,19.6,9.0,
COCCCN(C)C1CCN(C(=O)Nc2ccc(F)cc2)CC1,-5.5,i,4.3,4.8,-2.7,-13.5,-0.5,-0.3,
Cc1c(CCC(=O)O)c(=O)oc2c(C)c(OCc3ccccc3Cl)ccc12,-0.9,i,25.0,-0.4,83.0,-1.2,-3.9,-0.4,eIF4H inh retest=27.0;PABP polyA inh retest=8.2
O=C(Nc1cc([N+](=O)[O-])ccc1F)c1ccc2c(c1)OCCO2,-5.8,i,-11.9,22.9,-11.2,·,1.0,4.5,
O=C(NCCCn1ccnc1)/C(=C\c1ccccc1Cl)NC(=O)c1ccccc1,-12.1,i,-4.6,0.6,-1.6,-17.1,1.9,4.4,
CC(NC(=O)c1ccnc(C(C)(C)C)c1)c1ccccc1 (stereo not drawn),9.1,i,-4.0,-8.1,-12.5,-6.8,2.3,-3.3,
Clc1ccc(CN2CCc3c([nH]c4ccccc34)C2)cc1Cl,2.4,+,14.2,124.2*,19.3,-13.6,-4.8,-2.1,
Cc1ccc(C)c(NC(=O)CN(C)C(=O)c2cccc(-n3cccc3)c2)c1,8.3,i,·,-4.8,·,-25.0,-1.8,-1.3,
Cc1cc(NC(=O)CCCn2nc([N+](=O)[O-])c(Br)c2C)no1,9.8,i,-1.1,-9.3,-9.8,-6.0,-1.7,0.9,
COc1cccc(C(c2nnnn2Cc2ccco2)N2CCN(c3cccc(C)c3C)CC2)c1OC (stereo not drawn),·,i,5.1,-5.2,-9.3,-1.9,-45.0,-38.9,
Cc1ccc(CN(C)C(=O)COC(=O)CSc2ccc(C(N)=O)cc2[N+](=O)[O-])cc1,-4.0,·,·,-4.5,·,-5.5,-2.5,1.9,
CC(C)(C)NC(=O)NC(=O)COC(=O)Cc1c(Cl)cccc1Cl,-23.5,i,9.2,-7.7,4.1,·,-0.7,0.2,

# Four records picked at random from the list so far, as already listed:
SMILES,Env fusion inh,Rce1 inhib,PABP polyA inh,CSC inhib,eIF4H inh,Yeast UUG start,MT1-MMP act inh,MT1-MMP act inh RFP,others
CCOc1cc(C2c3c(n[nH]c3C)C(=O)N2c2ccc(Br)cc2)ccc1O (stereo not drawn),·,i,7.4,-10.2,8.4,-3.8,3.5,10.3,
O=C(CCCn1c(=S)[nH]c2ccccc2c1=O)NCc1ccco1,-6.1,i,3.5,-10.6,-1.1,-14.8,1.3,4.7,
Cc1ccc(-c2cc(C(=O)N/N=C/C(Br)=C/c3ccccc3)n[nH]2)o1,-1.2,i,-1.8,-5.5,-1.2,·,4.5,-4.7,
COc1ccc(OC)c(NC(=O)C2CCCN(S(=O)(=O)c3c(C)nn(C)c3C)C2)c1 (stereo not drawn),12.6,i,·,-5.0,·,-10.4,-3.5,5.6,

# Additional structures:
SMILES,Env fusion inh,Rce1 inhib,PABP polyA inh,CSC inhib,eIF4H inh,Yeast UUG start,MT1-MMP act inh,MT1-MMP act inh RFP,others
COc1ccc(CC(=O)Nc2cccc(/C(C)=N/NC(=O)c3cccc([N+](=O)[O-])c3)c2)cc1,·,i,1.4,-7.5,-0.2,-19.9,0.5,-6.7,
CNC(C)C#Cc1ccc2sc3cccc(OC)c3c(=O)c2c1 (stereo not drawn),-75.5,i,3.8,-5.0,-0.3,1.6,-1.1,4.9,
CC(Oc1ccc(Br)cc1)C(=O)Nc1cc(Cl)ccc1N1CCN(C)CC1 (stereo not drawn),-0.1,i,·,·,·,·,-6.2,-6.3,
COc1ccc(-c2nc3c4ccccc4ccn3c2Cc2ccsc2)cc1OC,-6.1,·,·,·,·,16.9,-5.9,-6.0,
COCCNC(=O)C1(C)CCN(Cc2ccccc2C#N)C1 (stereo not drawn),3.1,·,·,·,·,-18.2,0.9,7.1,
COc1ccccc1Nc1c([N+](=O)[O-])cc(C)cc1[N+](=O)[O-],12.1,i,3.9,4.9,-4.7,·,7.7,0.4,
